GIRK2 activ: opens human GIRK2 potassium channels; HEK293-GIRK2 thallium flux, Thallos fluorescence; calls only for hits at 25 µM; actives 0.05% (n = 63,000); AID 1259325;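 active means among the strongest 0.2% of first-round signals and kept after retests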;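 further: first round at about 10 µM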
Target sequence (P48051 whole entry, looked up): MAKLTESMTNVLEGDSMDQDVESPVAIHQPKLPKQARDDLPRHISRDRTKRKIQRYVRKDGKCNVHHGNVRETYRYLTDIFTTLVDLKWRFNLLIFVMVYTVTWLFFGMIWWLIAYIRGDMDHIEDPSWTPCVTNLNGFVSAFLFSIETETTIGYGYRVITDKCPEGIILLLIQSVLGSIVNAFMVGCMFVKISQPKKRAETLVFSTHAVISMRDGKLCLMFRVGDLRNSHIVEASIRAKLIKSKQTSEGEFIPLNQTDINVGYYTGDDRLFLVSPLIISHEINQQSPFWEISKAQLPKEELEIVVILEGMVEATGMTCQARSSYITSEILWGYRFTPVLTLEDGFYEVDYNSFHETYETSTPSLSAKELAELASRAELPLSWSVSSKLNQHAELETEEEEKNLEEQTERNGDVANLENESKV
Calls only; i = inactive.

| GIRK2 activ | molecule |
| --- | --- |
| i | Cc1cc(C)nc(Nc2nc(C(=O)NCCc3cccs3)cs2)n1 |
| i | CCCCc1ccc(-n2c(C)cn3c4c(=O)n(C(C)C(=O)OC)c(=O)n(C)c4nc23)cc1 (centres undefined) |
| i | COc1ccc2c(c1)c(CC(=O)NCCSC)c(C)n2C(=O)c1ccc(Cl)cc1 |
| i | O=C(CCc1ccccc1)N1CCC(CSc2ccccn2)CC1 |
| i | Cc1ccc(S(=O)(=O)N2CCN(S(=O)(=O)N3CCCC3)CC2)cc1 |
| i | O=C(Cn1nc2c(c1NC(=O)CC1CCCCC1)CSC2)NCCc1ccccc1 |
| i | COc1cccc(OC)c1C(=O)N(CCc1cccs1)Cc1ccoc1 |
| i | COC(=O)/C=C(\C)CC[C@]1(C)[C@@H](C)CC[C@]2(C)C(C(=O)O)=CCC[C@@H]12 |

Continuation.
| GIRK2 activ | molecule |
| --- | --- |
| i | COC(=O)c1ccc2c(c1)[nH]c(=S)n1c3ccccc3nc21 |
| i | COc1ccc(CC(=O)Nc2ccc(-n3nnc(C(N)=O)n3)cc2)cc1OC |
| i | COc1cccc(-c2nc(CSc3nc4ccccc4c(=O)n3Cc3ccco3)c(C)o2)c1OC |
| i | FC(F)Oc1ccc(-n2c(-c3ccccc3)c[nH]c2=S)cc1 |
| i | Cc1cn2c3c(=O)n(CCN4CCCCC4)c(=O)n(C)c3nc2n1-c1ccccc1F |
| i | O=C(Cc1cccs1)N1CCN(C2=NN=C(c3ccccc3)CS2)CC1 |
| i | COC(=O)CCC[C@H](O)[C@@H](O)CO |
| i | CC(=O)N1CCc2c(sc(NC(=O)c3ccc([N+](=O)[O-])s3)c2-c2nc3ccccc3s2)C1 |

(continued)
| GIRK2 activ | molecule |
| --- | --- |
| i | O=C(NCCCn1ccnc1-c1ccccc1)Nc1ccc2c(c1)OCO2 |
| i | O=C(CC1CSc2nc3c(c(=O)n21)CCC3)N1CCN(CCn2cccn2)CC1 (centres undefined) |
| i | COc1cc2c(cc1OC)CN(S(=O)(=O)CCCNC(=O)CC1CCCCC1)CC2 |
| i | CC(C)S(=O)(=O)c1ccc(CC(=O)NCC(F)(F)F)cc1 |
| i | O=C(Cn1nc2c(Sc3ccccc3)nccn2c1=O)Nc1cccc(Cl)c1F |
| i | Cc1noc(-c2ccc(NC(=O)CN3C(=O)CCC3=O)cc2)n1 |
| i | CCc1cccc(C)c1NC(=O)CSc1nc2c(-c3ccc(C)cc3)csc2c(=O)n1C |
| i | COCCNC(=O)Nc1nnc(-c2ccn(C)n2)o1 |

Continued:
| GIRK2 activ | molecule |
| --- | --- |
| i | Oc1cccc2ccc(N3CCCCC3)nc12 |
| i | CC(=O)c1ccc(N2CCN(C(=O)CCc3nnc4n(C)c(=O)c5sccc5n34)CC2)cc1 |
| i | COc1cccc2sc(N3CC(OC(=O)Cc4ccc(S(C)(=O)=O)cc4)C3)nc12 |
| i | CCOC(=O)c1ccc(NC(=O)COC(=O)c2ccco2)cc1 |
| i | Cc1cccc(-n2nc(-c3nc(-c4cccnc4)no3)c3ccccc3c2=O)c1 |
| i | COc1ccc(OC)c(-c2cc3ccc(OS(C)(=O)=O)cc3oc2=O)c1 |
| i | O=C(CCc1csc(NC(=O)c2ccco2)n1)NCc1ccc2c(c1)OCO2 |
| i | O=C(Nc1ccc(-n2nnc(C(=O)N3CCCC3)n2)cc1)c1ccsc1 |

(cont.)
| GIRK2 activ | molecule |
| --- | --- |
| i | CCOCCn1c(=O)c2c(nc3n(-c4ccc(C)cc4)c(C)cn23)n(C)c1=O |
| i | O=C(Nc1cccc(F)c1)c1c(O)c2cccnc2n(-c2cccc(F)c2)c1=O |
| i | CSc1ncccc1C(=O)NCC1CCC(c2nc3ccccc3n2C)CC1 (centres undefined) |
| i | COc1ccccc1CNC(=O)Cn1nc2c(N3CCc4ccccc4C3)nccn2c1=O |
| i | O=C(COc1cc(Cl)c(Cl)cc1Cl)N/N=C\c1ccc2nccnc2c1 |
| i | CCN(CC)CC#CCNC(=O)Nc1ccc2c(c1)OCO2 |
| i | Cc1ccc(S(=O)(=O)N2CCN(c3cccc(Cl)c3)CC2)cc1C |
| i | CCc1cccc(NC(=O)Cn2nc(-c3cccs3)c3sc(N4CCOCC4)nc3c2=O)c1 |

Continued.
| GIRK2 activ | molecule |
| --- | --- |
| i | COC(=O)c1ccc2c(=O)n(CCC(=O)NC3CCCCCC3)c(=S)[nH]c2c1 |
| i | Cc1cc(S(=O)(=O)NCCCN2CCOCC2)ccc1F |
| i | O=C(CC1OC(=O)c2ccccc21)c1ccc(Br)cc1 (centres undefined) |
| i | CCc1ccc(CC2S/C(=C(/C#N)C(C)=O)NC2=O)cc1 (centres undefined) |
| i | Cc1cc(O)c(Cc2c(O)cc(C)n(Cc3ccccn3)c2=O)c(=O)n1Cc1ccccn1 |
| i | Cc1noc(CNC(=O)c2cc3ccccc3[nH]2)n1 |
| i | COc1ccc(NC(=O)CSc2nc3c(-c4ccc(C)cc4)csc3c(=O)n2C)cc1 |
| i | N#CC1=CN(c2ccc(I)cc2)c2ccccc2S1(=O)=O |

(cont.)
| GIRK2 activ | molecule |
| --- | --- |
| i | O=C(NCC(O)c1ccc2c(c1)CCO2)c1ccc(OC(F)(F)F)cc1 (centres undefined) |
| i | Cc1cc(NC(=O)COc2ccc(Cl)cc2)n(-c2nc3c(cnn3-c3ccccc3)c(=O)[nH]2)n1 |
| i | Cc1nn2c(SCC(N)=O)cc(C(C)(C)C)nc2c1-c1ccc(Cl)cc1 |
| i | O=S(=O)(/C=C/c1ccccc1)Nc1cccc(-c2cnc3n2CCC3)c1 |
| i | CCN(CC)c1ccc(-c2noc(CN3CCN(C4CCCCC4)CC3)n2)cn1 |
| i | O=C(Nc1nnc(-c2ccccc2Cl)o1)c1cc(-c2ccccc2)on1 |
| i | Cc1ccccc1C(=O)NCC#CCN(C(C)C)C(C)C |
| i | COc1ccc(C(=O)NCCS(=O)(=O)NCC(OC)OC)cc1 |

The list goes on:
| GIRK2 activ | molecule |
| --- | --- |
| i | O=C(c1ccc(F)cc1)N1CCN(CCn2ccnc2-c2ccccc2)CC1 |
| i | CCc1nnc(C2CCN(S(=O)(=O)c3ccc(Cl)cc3)CC2)s1 |
| i | COc1cccc(-n2nnc(-c3nc(C)c(C(=O)NCCc4ccc(OC)c(OC)c4)s3)c2C)c1 |
| i | COc1ccc2c(=O)c3c(oc2c1)C(=O)N(CCN(C)C)C3c1ccc(C(C)C)cc1 (centres undefined) |
| i | CCCCNC(=O)c1cccc(-n2ccnc2SCC(=O)Nc2cc(Cl)ccc2OC)c1 |
| i | Cc1cc(N2C(=O)C(O)=C(C(=O)c3cccs3)C2c2ccc([N+](=O)[O-])cc2)no1 (centres undefined) |
| i | CCOC(=O)c1cn[nH]c1S(=O)(=O)Nc1cccc(SC)c1 |
| i | N#Cc1ccc(COCC2CCN(S(=O)(=O)C3CCCCC3)CC2)cc1 |

(more compounds)
| GIRK2 activ | molecule |
| --- | --- |
| i | O=C(NCc1ccco1)c1cc(=O)c(OCc2ccccc2)co1 |
| i | COC(=O)c1ccc(Oc2coc3c4c(ccc3c2=O)OCN(CC(C)C)C4)cc1 |
| i | Cc1cccc(C)c1NC(=O)Cn1nc(-c2ccccc2)c2sc(N3CCCC3)nc2c1=O |
| i | COc1ccc(S(=O)(=O)Nc2cnc(N(C)C)nc2)cc1 |
| i | CC(O)(CCc1ccccc1)CNC(=O)NCc1ccc(F)cc1 (centres undefined) |
| i | Cc1ccc(NC(=O)Cn2cnc3c(-c4ccc(F)cc4)csc3c2=O)cc1C |
| i | CC(=O)CC1(O)C(=O)N(CCOc2cccc(C)c2)c2c(C)cc(C)cc21 (centres undefined) |
| i | COc1ccccc1NC(=O)C1CCN(c2c(C#N)cnc3ccc(F)cc23)CC1 |

Further compounds
| GIRK2 activ | molecule |
| --- | --- |
| i | Cc1c(Cl)cccc1NC(=O)NCCn1ncccc1=O |
| i | Cc1ccccc1NC(=O)N1CCCC(c2nnc(C(F)(F)F)o2)C1 (centres undefined) |
| i | COc1ccc(-c2nnc(CC(=O)NCc3ccccc3F)o2)cc1 |
| i | COc1ccc(C(CC(=O)c2ccc(Cl)cc2)C(C#N)C#N)cc1 (centres undefined) |
| i | O=C(CC12CC3CC(CC(C3)C1)C2)NCC1CCCO1 (centres undefined) |
| i | CC(=O)c1ccc(N2CCN(C(=O)c3cc(-c4sc(-c5ccc(F)cc5)nc4C)[nH]n3)CC2)cc1 |
| i | O=C(NC1CCSC1=O)c1cnn2c1OCCC2 (centres undefined) |
| i | O=C(Nc1ccccc1)Nc1cnc(N2CCN(c3ccccn3)CC2)nc1 |

(listing goes on)
| GIRK2 activ | molecule |
| --- | --- |
| i | CCOc1ccc(NC(=O)Cn2nc3ccc(-c4ccc(C)c(C)c4)nn3c2=O)cc1 |
| i | O=C(Nc1nc2c(s1)CN(C(=O)NCc1cccc3ccccc13)CC2)C1CC1 |
| i | CC(=O)N1c2ccc(S(=O)(=O)N3CCN(c4ccc(-c5ccccc5C)nn4)CC3)cc2CC1C (centres undefined) |
| i | O=C(COc1cc(=O)n2ccccc2n1)N1CCC(Cc2ccccc2)CC1 |
| i | COCCN(Cc1ccncc1)C(=O)NC12CC3CC(CC(C3)C1)C2 |
| i | CC(C)Sc1ccc(CC(=O)NCC(O)C2CCCCC2)cc1 (centres undefined) |
| i | N#Cc1ccc(-c2csc(NC(=O)NCc3ccc(F)cc3)n2)cc1 |
| i | CSc1ccc(-c2noc(Cn3ncn4nc(-c5ccc(F)cc5)cc4c3=O)n2)cc1 |

Continued.
| GIRK2 activ | molecule |
| --- | --- |
| i | COc1ccc(C(=O)Oc2ccc3c(c2)O/C(=C\c2cccnc2)C3=O)cc1 |
| i | Cn1cccc1C(CNC(=O)C(=O)Nc1ccc(OC(F)(F)F)cc1)N1CCCC1 (centres undefined) |
| i | COC(=O)C1Nc2cc(C(F)(F)F)ccc2S(=O)(=O)N1 (centres undefined) |
| i | Cc1ccccc1-c1csc2c(=O)[nH]c(N3CCCC(C(=O)NCCC(C)C)C3)nc12 (centres undefined) |
| i | O=C(Nc1cccc(Br)c1)c1coc(NC(=O)c2cnccn2)n1 |
| i | Cc1ccccc1N1CCN(c2nccn3c(=O)n(CC(=O)NCc4cc(F)cc(F)c4)nc23)CC1 |
| i | Cc1ccc(-c2nc(Cn3nnc(C(=O)NC(C)c4ccc(F)cc4)c3C)c(C)o2)cc1 (centres undefined) |
| i | Cc1ccc(C)c2sc(OC3CCN(S(C)(=O)=O)CC3)nc12 |

(continued)
| GIRK2 activ | molecule |
| --- | --- |
| i | CCc1ccc(S(=O)(=O)N2CCN(S(=O)(=O)C3CC3)CC2)s1 |
| i | O=C(c1cnn2c1OCCC2)N1CCN(c2ccccc2Cl)CC1 |
| i | CCOc1ccc(N2C(=O)N(Cc3cc(C)ccc3C)C3CS(=O)(=O)CC32)cc1 (centres undefined) |
| i | Cc1ccc(N2C(=O)CCC2=O)cc1 |
| i | CC(=O)c1ccc(N2CCN(C(=O)c3cc4n(n3)CCCO4)CC2)cc1 |
| i | O=C(c1cccc(-n2ccc3ccccc32)c1)N1CCN(C(=O)c2ccco2)CC1 |
| i | CCOCCCNC(=O)CCn1c(=O)[nH]c2ccccc2c1=O |
| i | Cc1noc(C2(NC(=O)Nc3ccccc3C(F)(F)F)CCCCC2)n1 |

(cont.)
| GIRK2 activ | molecule |
| --- | --- |
| i | O=C(Nc1ccc2c(c1)CCCN2C(=O)c1cccs1)Nc1ccc2c(c1)OCO2 |
| i | COc1ccc(-c2cc3c(SCC(=O)Nc4cccc(Cl)c4C)nccn3n2)cc1 |
| i | NC(=O)C1CCN(CCOc2ccc3cc(-c4ccc(Cl)cc4)c(=O)oc3c2)CC1 |
| i | COc1ccc(-c2coc3c4c(ccc3c2=O)OCN(Cc2ccco2)C4)cc1OC |
| i | CC(C)c1cccc(NC(=O)CCn2cnc3c([nH]c4ccc(F)cc43)c2=O)c1 |
| i | CC(=O)Nc1nc2c(s1)CN(S(=O)(=O)c1ccc(Br)s1)CC2 |
| i | O=C(Oc1ccc2c(=O)c(-c3ccc4c(c3)OCCO4)coc2c1)c1ccc2c(c1)OCO2 |
| i | COc1ccc(Cl)cc1C(=O)N1CCc2nc(NC(=O)c3cc(C)on3)sc2C1 |

(continued)
| GIRK2 activ | molecule |
| --- | --- |
| i | O=C(NCC1(CO)CC1)c1ccc(-c2ccccc2)cc1 |
| i | COc1ccc(-c2noc(-c3ccc(=O)n(Cc4noc(-c5ccco5)n4)c3)n2)cc1F |
| i | O=C(/C=C/c1ccccc1)N1CC(c2nc(-c3ccc[nH]c3=O)no2)C1 |
| i | COCCNC(=O)CSc1nc(-c2ccccc2)[nH]c1-c1ccc(OC)cc1 |
| i | O=C(c1ccc(S(=O)(=O)N2CCCC2)cc1)N1CCCc2ccccc21 |
| i | N#Cc1nc(-c2ccc(S(=O)(=O)N3CCCCCC3)cc2)oc1N1CCCC1 |
| i | O=C(NCCCn1ncccc1=O)C1c2ccccc2Oc2ccccc21 |
| i | COc1ccc(-c2nc(C)cc3nn(CC(=O)Nc4ccc(C)cc4)c(=O)n23)cc1 |

The list goes on.
| GIRK2 activ | molecule |
| --- | --- |
| i | COc1ccccc1N1CCN(CCNC(=O)C2CC2)CC1 |
| i | N#CC1=CN(c2ccc(F)cc2Br)c2ccccc2S1(=O)=O |
| i | Cc1nc(C)c(-c2nnc(NC(=O)c3ccno3)o2)s1 |
| i | CC(C)c1cc(=O)[nH]c(-n2nc(C3CC3)cc2NC(=O)c2cccs2)n1 |
| i | CC(Cc1ccco1)NC(=O)C(=O)NCc1cccs1 (centres undefined) |
| i | O=C(NCC1(c2cccs2)CC1)C(c1ccccc1)c1ccccc1 |
| i | CCOc1cc(C(=O)Nc2nnc3n2CCS3)cc(OCC)c1OCC |
| i | Cc1cnc(NC(=O)C2(c3cccs3)CCCC2)s1 |

Going on with the list:
| GIRK2 activ | molecule |
| --- | --- |
| i | COc1cc(NC(=O)Cc2ccc(OC)c(OC)c2)ncn1 |
| i | O=C(Nc1nccs1)C1CCN(S(=O)(=O)c2ccc(F)cc2)CC1 |
| i | COC(=O)c1ccc(Oc2coc3cc(OCC(=O)OCc4ccccc4)ccc3c2=O)cc1 |
| i | Cc1cc2c(SCC(=O)c3ccccc3)ncnc2s1 |

These rows are one share of the data (hit frequency here may not be typical).
